Beta cell apopt: inhibitors of cytokine-induced beta cell apoptosis, primary screen, luminescence | AID 435005, 2010 | protection from apoptosis, % (test concentration not listed) | INS-1E cytokine-induced death, ATP luminescence, 48 h; percent of positive-control rescue, neutral wells zero | actives 0.8% (n = 300,000);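 active means all replicates at 75% or more, or half of them and the mean; inconclusive means half reach 75% but not the mean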;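 further: 0% = cytokine-treated negative control wells and 100% = positive control rescue; higher means more ATP so stronger rescue from cytokine killing; wells of about 40 µL received 100 nL stock; the first replicate is given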
RanGTP-Impb inh: inhibitors of RanGTP-importin-beta interaction, primary screen, biochemical, FRET, CFP-Ran, YFP-importin-beta, homogeneous; Ran GTPase (GTP-bound) - importin-beta complex; cell-free CFP-Ran/YFP-importin-beta FRET ratio; inhibition, % (concentration not given with the values); actives 1.1% (n = 300,000);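 active means most replicates above 15%; inconclusive means exactly half above 15%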;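 further: 0% = DMSO wells and 100% = Ran loaded with GDP instead of GTP; wells of about 40 µL received 100 nL stock; the first replicate is given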
Ecoli rRNA inh: reduced GFP signal of wild-type E. coli, primary screen, bacterial rRNA inhibitor project, GFP/RFP fluorescence, OD600, single point | GFP signal change (wild-type ribosome), % (concentration not given with the values) | E. coli WT GFP vs humanized-ribosome RFP mutants, 24 h; active compounds read low; DMSO median 0, no signal -100 | actives 1.6% (n = 350,000);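 active means significant combined selectivity score with lowered wild-type GFP, culture density cut under 30%, mutant RFP and density less affected; inactive means any of these conditions unmet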; further: one replicate is shown; some compounds called inactive have numbers as strong as hits
MLL AF4-AF9 inh: inhibitors of AF4 peptide binding to AF9, primary screen, biochemical, AlphaScreen, biotin-AF4 peptide, FLAG-AF9, single point | actives 0.47% (n = 350,000) | inhibition, % at 10 µM;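 active means every replicate reaching a set inhibition limit, whatever the replicate mean, cut at about 25% in these data; inconclusive means mean inhibition reaches that limit but some replicates miss it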;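 further: 0% = plate neutral control median and 100% = total signal loss; the record names both 10 and 1 µM as test concentration; the first replicate is given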
Target sequence (P42568 whole entry, looked up): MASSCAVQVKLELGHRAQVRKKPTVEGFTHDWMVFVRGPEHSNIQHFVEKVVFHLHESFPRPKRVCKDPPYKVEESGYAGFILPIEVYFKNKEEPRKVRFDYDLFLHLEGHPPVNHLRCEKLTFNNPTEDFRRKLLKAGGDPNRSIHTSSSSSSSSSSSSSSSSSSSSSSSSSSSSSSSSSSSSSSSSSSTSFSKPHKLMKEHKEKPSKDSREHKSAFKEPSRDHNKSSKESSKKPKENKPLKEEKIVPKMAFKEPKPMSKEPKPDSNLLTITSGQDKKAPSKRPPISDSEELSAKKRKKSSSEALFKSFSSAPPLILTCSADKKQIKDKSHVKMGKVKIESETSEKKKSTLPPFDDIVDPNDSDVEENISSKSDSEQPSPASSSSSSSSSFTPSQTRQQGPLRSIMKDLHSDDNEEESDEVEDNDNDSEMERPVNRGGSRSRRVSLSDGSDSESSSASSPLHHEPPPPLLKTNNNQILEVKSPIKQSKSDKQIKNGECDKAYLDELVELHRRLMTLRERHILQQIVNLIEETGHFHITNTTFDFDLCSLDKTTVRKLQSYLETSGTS
Calb FLC: C. albicans growth inhibition with fluconazole, primary screen, CaCi-2 strain, Alamar Blue fluorescence; C. albicans CaCi-2 (fluconazole-resistant clinical isolate) + fluconazole, 48 h; growth inhibition, % (concentration not given with the values); actives 0.57% (n = 300,000); AID 1979, 2009;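 active means most replicates above 75%; inconclusive means exactly half above 75%; inactive means most below 75%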;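 further: all wells also contain fluconazole at 8 µg/ml as a sub-toxic cotreatment; 0% = median of DMSO wells and 100% = median of geldanamycin control wells; wells of about 8 µL received 7.5 nL stock; the first replicate is given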
Bfl-1 A1 inh: caspase 3/7 activation in MEF A1-2A-BIM cells, primary screen, A1 inhibitor project, cell-based, luminescence, HTS; Caspase-Glo 3/7 luminescence, 3 h; percent of clofoctol response, vehicle zero; caspase activation, % (concentration not given with the values); actives 0.066% (n = 330,000); AID 2462, 2010;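 active means over half of replicate activation scores above 10%, or exactly half above 10 with the replicate mean above 10; inconclusive means replicate mean below 10 yet half the replicates above 10; inactive means over half of replicates below 10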;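 further: wells of about 30 µL received 50 nL stock; many hits fall short of the cut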
Vif A3G: inhibitors of Vif binding to APOBEC3G peptide, primary screen, biochemical, TR-FRET, GST-Vif 1-94, biotin-A3G peptide, dose response retest (AID 1117319). one-dose inhibition, %; IC50 in µM for titrated hits. actives 0.57% (n = 260,000). TR-FRET GST-Vif / biotin-A3G peptide binding; higher % means a stronger effect; test concentration not given here; strong numbers were not always called active;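 active means above the screen mean plus three standard deviations and confirmed in dose response; inconclusive means results disagree or hit not tested in dose response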;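 further: Vif residues 1-94 fused to GST binding biotinylated APOBEC3G peptide 110-148; 0% = full assay without inhibitor and 100% = GST in place of GST-Vif; retest series ran down from 100 µM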
T cruzi inh: inhibitors of intracellular T. cruzi growth, primary screen, luminescence, NIH3T3 host cells | T. cruzi beta-gal in NIH3T3, 90 h | inhibition, % (no concentration beside the values) | actives 1.4% (n = 300,000);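 active means mean inhibition across valid replicates above about 55%, limit read from the data; inconclusive means mean below that limit but half or more replicates reach it; inactive means mean below it, under half of replicates reach it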;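 further: signal also drops with host cell toxicity which is not excluded here; 0% = plate median of DMSO wells and 100% = zero luminescence signal; higher percent means less beta-gal luminescence so fewer parasites; stock transfer was 50 nL into about 50 µL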
Ecoli rRNA inh OD600: recorded beside Ecoli rRNA inh, whose call it bears; OD600 change, %; measured here: OD600 growth;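 optical density of the mix in the first replicate; 0 = DMSO median and -100 = no signal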
Ecoli rRNA inh RFP: also measured in Ecoli rRNA inh; calls as there; RFP signal change, %; measured here: RFP humanized mutant strains;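 first replicate; 0 = DMSO median and -100 = no signal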
Starred values were filed as active, the others as inactive; u = inconclusive; x = not tested or not shown. Not all compounds are listed (hit frequency here may not be typical).

SMILES	Beta cell apopt	RanGTP-Impb inh	Ecoli rRNA inh	Ecoli rRNA inh OD600	Ecoli rRNA inh RFP	MLL AF4-AF9 inh	Calb FLC	Bfl-1 A1 inh	Vif A3G	T cruzi inh
CC(C)CN(C(=O)c1cccc(Cl)c1)c1c(N)n(Cc2ccccc2)c(=O)[nH]c1=O	-5.8	x	2.5	9.9	-0.4	2.3	x	1.3	3.2%	x
COc1cccc(NC(=O)CN(C)C(=O)c2cc3c(s2)CCCCC3)c1	4.3	x	-1.6	-29.0	0.5	-1.6	x	-1.1	x	x
O=C(Cn1c(=O)oc2cc(S(=O)(=O)N3CCCCCC3)ccc21)NC1CCCCCCC1	8.0	2.8	17.1	7.5	5.3	-5.2	-6.4	0.9	11.2%	7.2
CC(=O)c1ccc(N2CCN(CC(O)c3ccccc3)CC2)cc1 (stereo unspecified)	-2.5	2.1	-1.3	-5.5	-3.4	-2.1	-4.3	-0.5	x	9.2
COc1ccc(NC(=O)CCS(=O)(=O)c2ccccc2Cl)cc1S(=O)(=O)Nc1ccc(Cl)cc1	7.4	2.1	-19.4*	-5.0*	2.5*	x	-6.0	0.4	x	9.2
O=C(N/N=C/c1ccc(Br)o1)c1cccnc1	2.4	2.6	x	x	x	-0.4	-4.0	0.7	2.8%	35.2
C/C(=N\NC(=O)CNc1cccc(Cl)c1C)C1CC1	0.2	-1.1	-5.8	-4.9	1.2	0.4	-0.2	-0.3	-8.4%	-13.1
CC1CCC(NC(=O)Cn2c(=O)oc3ccccc32)CC1 (stereo unspecified)	-2.4	-0.5	10.5	9.4	-0.3	-1.9	-7.8	0.2	x	0.3
CS(=O)(=O)c1ccc2nc(NC(=O)c3ccc(N4CCCC4=O)cc3)sc2c1	2.6	1.4	4.4	7.1	-6.1	-22.5	4.5	1.2	-24.9%	1.0
OCCC1CN(Cc2cccc3c2OCO3)CCN1Cc1ccccc1 (stereo unspecified)	5.4	-2.7	6.5	6.9	0.0	1.2	-19.3	-0.2	u	43.2
CN(C)CCCN(C(=O)c1cc(-c2cccs2)nc2ccccc12)c1nc2ccc(F)cc2s1	6.0	-2.6	-12.6	-37.0	-10.4	3.8	-6.1	-0.4	x	29.8
CCOc1ccc(NC(=O)CN(Cc2ccccc2)S(C)(=O)=O)cc1	0.2	-0.5	x	x	x	x	-32.4	-0.1	14.0%	-5.4
O=C(NCCc1ccccc1)C1CCN(S(=O)(=O)N2CCC3(CC2)OCCO3)CC1	1.1	-1.3	x	x	x	x	41.5	-0.5	9.9%	9.0
Cc1ccc(CNC(=S)N2CCOCC2)cc1	-5.4	1.1	9.2	16.8	-2.1	-1.2	8.5	0.0	-3.2%	-14.3
Cc1ccc(-c2[nH]c(=S)[nH]c(=O)c2C#N)cc1	-2.9	2.8	-0.1	-4.0	-1.3	-1.5	-16.8	1.5	-6.0%	-8.0
CCN(CC)C(=O)CSc1nnc([C@@H](N)Cc2ccccc2)o1	-6.5	4.6	x	x	x	x	0.4	0.1	u	-15.5
O=C(Nc1ccc(F)c(F)c1)c1cc(S(=O)(=O)N2CCN(c3ccccn3)CC2)ccc1F	-8.6	-0.9	-0.7	5.4	8.0	x	-11.9	-0.8	16.2%	9.2
COc1ccccc1Sc1nc(-c2ccccn2)ncc1OC	31.7	-2.6	-50.6	-77.3	-17.6	4.3	2.6	u	-6.5%	13.0
CC1=Nc2ccccc2N=C(NC(=O)c2ccccc2)C1c1ccc(Cl)cc1 (stereo unspecified)	2.0	-2.1	-28.4	-54.0	-1.2	-1.4	26.1	0.1	4.4%	22.9
COCC(=O)Nc1ccccc1C#N	1.1	1.5	x	x	x	x	-0.3	0.9	-0.2%	-8.0
COc1ccc2cc(-c3[nH]ncc3CNCCn3nc(C)cc3C)ccc2c1	-2.7	1.9	-8.9	-7.7	-0.4	1.8	-4.7	0.5	24.4%	29.2
CCCCCCCCCCCC(=O)c1c(O)cccc1O	-1.6	-3.9	x	x	x	-1.4	1.2	0.0	u	-20.5
O=C(COC(=O)CCNS(=O)(=O)c1cccs1)Nc1cc(C(F)(F)F)ccc1Cl	-3.7	x	-9.8	-14.2	1.0	-2.9	x	0.6	x	x
CN1CCN(C2Cc3ccccc3Sc3cc(C(F)(F)F)ccc32)CC1 (stereo unspecified)	41.0	3.8	-51.0	-80.5	-14.3	26.2*	52.9	0.3	x	53.1
NNC(=O)CN1CCN(c2ncc(C(F)(F)F)cc2Cl)CC1	-2.9	-3.4	9.1	2.9	2.1	1.9	-38.4	0.5	7.1%	7.1
NC(=O)c1ccccc1Nc1nc(NCCO)nc(N2CCCC2)n1	-5.4	u	-1.4	-11.3	-5.1	-3.2	0.6	-0.3	x	-18.6
Cc1ccccc1-n1cc(CNCc2c(C(=O)N(C)C)nc3ccc(Cl)cn23)cn1	3.8	-0.7	4.0	1.8	-10.6	-8.5	-2.1	0.7	-0.2%	16.0
O=C(N/N=C/c1sc(N2CCOCC2)nc1-c1ccccc1)c1ccccc1Cl	-6.9	29.9*	2.3	11.5	-3.8	-2.7	u	-0.2	-0.6%	27.8
Cc1ccc(C2CC(C(F)(F)F)n3nc(C(=O)NCc4ccco4)cc3N2)cc1 (stereo unspecified)	-6.6	-4.7	x	x	x	x	0.6	-0.2	14.3%	-7.8
Cc1c(C(=O)O)oc2c1C(O)CCC2 (stereo unspecified)	-1.1	-0.8	-5.8	-4.2	-3.0	x	5.7	0.4	u	-0.5
O=C(NCc1cccnc1)C(=O)NC1CCCCC1	-7.2	-0.4	7.0	5.2	-0.7	-1.7	-22.0	0.1	x	-4.0
O=C(Nc1cccnc1)c1ccc2c(c1)C(=O)N(Cc1cccnc1)C2=O	-0.2	u	x	x	x	x	14.1	0.2	2.4%	-9.3
Cc1ccc2c(c1)NC(=O)[C@@]1(C)[C@@H](c3ccccc3)[C@H]3COc4ccccc4[C@@H]3N1C2=O	-0.1	x	2.5	-15.0	6.0	1.9	x	1.7	x	x
O=C(O)c1ccc2c(c1)OCCOCCOCCOCCOCCO2	-1.2	0.0	9.7	17.6	-1.1	-4.3	-3.3	-0.5	-6.0%	4.1
CCN(CC)CCN(C)c1ccc(N2C(=O)C3CC=CCC3C2=O)cc1[N+](=O)[O-] (stereo unspecified)	-1.7	-0.7	5.5	3.5	-7.7	4.4	1.0	-0.4	1.8%	41.2
CC(OC(=O)Cc1c(F)cccc1Cl)C(=O)NC1(C#N)CCCCC1 (stereo unspecified)	x	-1.1	3.3	7.0	1.0	0.5	-28.3	-0.7	6.5%	-5.5
CNc1nnc(-c2ccc(C)cc2)c2ccccc12	-3.7	1.2	-30.6	-32.1	2.7	1.4	-31.1	-0.6	-5.2%	-6.0
CC(=O)c1ccc(NC(=O)CCC(=O)N2CC(C)Oc3ccc(C)cc32)cc1 (stereo unspecified)	-4.0	13.1	-18.6	-21.9	-1.7	-5.6	4.9	0.6	x	8.8
CCCC(=O)N(CC(=O)Nc1sc(C)c(C)c1C(N)=O)Cc1ccccc1	-3.5	1.4	9.4	4.6	-1.6	-0.5	39.8	-1.0	6.3%	4.2
CCCCNC(=S)NNC(=O)C12CC3CC(CC(C3)C1)C2	x	-1.9	x	x	x	x	-6.9	-0.5	2.2%	-10.8

Shown as a hit in RanGTP-Impb inh, among the entries above:
mol	RanGTP-Impb inh	Ecoli rRNA inh	Ecoli rRNA inh OD600	Ecoli rRNA inh RFP	MLL AF4-AF9 inh	Bfl-1 A1 inh	Vif A3G
O=C(N/N=C/c1sc(N2CCOCC2)nc1-c1ccccc1)c1ccccc1Cl	29.9*	2.3	11.5	-3.8	-2.7	-0.2	-0.6%

Further compounds follow.
SMILES	Beta cell apopt	RanGTP-Impb inh	Ecoli rRNA inh	Ecoli rRNA inh OD600	Ecoli rRNA inh RFP	MLL AF4-AF9 inh	Calb FLC	Bfl-1 A1 inh	Vif A3G	T cruzi inh
CCN1CCN(S(=O)(=O)c2ccc(Cl)c(C(=O)NC3CCCC3)c2)CC1	6.6	-0.3	5.8	5.4	-0.6	-13.6	7.6	0.0	-6.5%	-5.4
O=C(Cc1ccc(Cl)cc1)Nc1cccc2ncccc12	-3.2	0.9	9.4	-1.5	-1.7	-1.3	-7.3	0.5	0.7%	21.9
CCOc1ccccc1NC(=O)C(OC(=O)c1ccc(O)cc1)c1ccccc1 (stereo unspecified)	7.5	0.0	-41.8	-57.1	20.2	-7.2	39.2	-0.5	1.7%	12.1
COCc1cc(=O)[nH]c(Nc2nc3ccc(C)cc3o2)n1	79.7*	-0.7	x	x	x	x	-7.8	-0.2	18.8%	58.7*
Nn1c(SC/C=C/c2ccccc2)nnc1-c1ccncc1	1.5	2.7	x	x	x	x	16.6	-0.4	2.9%	9.7
CCN(CC)c1ccc(/C=C2/C(=O)c3ccc(C(=O)O)cc3C2=O)cc1	-5.2	x	-0.3	-4.3	5.9	7.0	x	-5.3	x	x
COc1nc(Nc2ccc3c(c2)OCO3)nc(OC)n1	-1.9	0.3	5.7	8.1	-2.3	0.6	-2.7	-3.6	-0.7%	-4.7
Cc1oc(-c2cccc(F)c2)nc1CN(Cc1ccccc1)C[C@@H]1CCC(=O)N1	-4.3	3.1	-30.6	-38.9	-4.2	-1.9	-0.7	0.2	-1.8%	18.9
NNC(=O)c1cccc(COCC(F)(F)C(F)F)c1	-2.1	1.2	2.5	-4.0	-1.1	-0.6	-3.1	0.6	2.4%	2.9
CCOc1ccc(CCNC(=O)COC(=O)c2ccc[nH]c2=O)cc1OCC	-3.1	x	7.9	-1.0	-3.8	4.4	x	1.8	x	x
CCN(CC)c1ccc(/C=N/N2CCN(c3ccccn3)CC2)cc1	-11.4	1.0	0.8	9.2	-0.8	1.0	-13.3	1.2	6.1%	-10.8
CCCC(=O)Nc1c(-c2ccc(C)cc2)c(=O)c2ccccc2n1C	5.4	1.6	9.7	5.5	1.9	-4.2	-7.4	1.3	-8.0%	-5.1
CN(CC(=O)Nc1ccc(C#N)cc1)CC(=O)Nc1ccc(N2CCOCC2)cc1	1.9	1.4	x	x	x	x	-12.9	-0.9	x	-14.3

Source: PubChem
